Bioassay records as filed in PubChem.
UUG fidelity – yeast start codon fidelity modulation. 350,000 tested, 0.13% active. activity score, % at 18.7 µM. S. cerevisiae UUG-firefly luciferase reporter, luminescence/redox ratio. AID 602363;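 active means replicate mean at a twofold rise or more, about +100% in these data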;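 further: firefly luciferase made from a UUG start codon reports start codon fidelity; reporter light over untreated wells divided by growth signal over untreated wells; some hits fall short of that in this replicate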
An asterisk follows results filed as active. A portion of the library (hit frequency here may not be typical).

Cc1ccccc1S(=O)(=O)N1C[C@H](O)COC[C@H]2O[C@H](CC(=O)N3CCC(Cc4ccccc4)CC3)CC[C@@H]21
- UUG fidelity = 11
Cc1cccc(S(=O)(=O)N2C[C@@H]3[C@H](c4ccccc42)[C@H](CO)N3CC2CCOCC2)c1
- UUG fidelity = 11
CC(C)NC(=O)N1CCCCN2[C@@H](CO)[C@H](c3ccc(C#C[C@@H](C)O)cc3)[C@@H]2C1
- UUG fidelity = -7
COc1ccccc1CN1[C@H](CO)[C@@H]2c3ccccc3N(C(=O)C3CC3)C[C@@H]21
- UUG fidelity = -3
C[C@@H]1CN([C@@H](C)CO)C(=O)c2cccc(NC(=O)c3cnccn3)c2O[C@H]1CN(C)C
- UUG fidelity = -15
Cc1noc(C)c1NC(=O)Nc1ccc2c(c1)C(=O)N([C@H](C)CO)C[C@@H](C)[C@H](CN(C)Cc1ccc(C(=O)O)cc1)O2
- UUG fidelity = -6
COc1cccc(CN2[C@H](CO)[C@H]3c4ccccc4N(C(=O)c4ccncc4)C[C@H]32)c1
- UUG fidelity = -4
C[C@H]1CN([C@@H](C)CO)C(=O)c2cc(NC(=O)Nc3ccc(C(F)(F)F)cc3)ccc2O[C@@H]1CN(C)CC1CCCCC1
- UUG fidelity = 1
CO[C@H]1CN(C)C(=O)c2ccc(NC(C)=O)cc2OC[C@H](C)N(Cc2ccncc2)C[C@H]1C
- UUG fidelity = -2
Cc1noc(C)c1S(=O)(=O)Nc1cccc2c1O[C@H](CN(C)Cc1ccc3c(c1)OCO3)[C@H](C)CN([C@H](C)CO)C2=O
- UUG fidelity = 8
COc1ccccc1S(=O)(=O)N1CC[C@H]2[C@H](CO)Nc3ccc(-c4ccc(C#N)cc4)cc3[C@H]21
- UUG fidelity = -4
CC=Cc1ccc2n(c1=O)C[C@@H]1[C@@H](CO)[C@H](C(=O)NCc3ccccc3)[C@H]2N1C (mixture of isomers)
- UUG fidelity = 5
CCC(=O)N1[C@H](CO)[C@H](c2ccccc2)[C@H]1CN(CC)C(=O)c1cccc(F)c1
- UUG fidelity = 13
CC=Cc1ccc2n(c1=O)C[C@H]1[C@H](CO)[C@@H](C(=O)Nc3ccccc3)N(CC3CC3)[C@@H]21 (mixture of isomers)
- UUG fidelity = 0
CN1c2ccc(-c3cccc(C#N)c3)cc2[C@@H]2[C@@H](CCN2C(=O)c2ccc(F)cc2)[C@@H]1CO
- UUG fidelity = -14
CC(=O)N1CC[C@@H]2[C@@H](CO)N(C)c3ccc(-c4ccc(C#N)cc4)cc3[C@@H]21
- UUG fidelity = 16
C[C@@H]1CN([C@@H](C)CO)C(=O)c2cccc(NC(=O)c3nc4ccccc4s3)c2O[C@H]1CN(C)Cc1ccc(C(=O)Nc2ccccc2N)cc1
- UUG fidelity = 6
CC(=O)NC[C@@H]1[C@@H](c2ccc(C3=CCCC3)cc2)[C@H](CO)N1C(=O)NC(C)C
- UUG fidelity = 3
C[C@H]1CN([C@@H](C)CO)C(=O)c2cc(N(C)C)ccc2O[C@H]1CN(C)Cc1ccc(-c2ccccc2)cc1
- UUG fidelity = -11
CO[C@@H]1CN(C)C(=O)c2cc(NS(=O)(=O)c3ccccc3)ccc2OC[C@H](C)NC[C@@H]1C
- UUG fidelity = -1
CN(C)C(=O)c1cccc(-c2ccc3c(c2)[C@@H]2[C@@H](CCN2C(=O)c2ccccc2F)[C@@H](CO)N3)c1
- UUG fidelity = -7
CN1C(=O)c2cc(NC(=O)Nc3ccc(F)cc3)ccc2OC[C@@H]2O[C@@H](CC(=O)NC3CCC3)CC[C@@H]21
- UUG fidelity = 24
COc1ccc(C#Cc2ccc([C@@H]3[C@@H](CO)N4CCCCN(S(=O)(=O)c5cn(C)cn5)C[C@@H]34)cc2)cc1
- UUG fidelity = -3
C[C@@H]1CN([C@@H](C)CO)C(=O)c2cccc(NC(=O)NC3CCCCC3)c2O[C@@H]1CN(C)S(=O)(=O)c1ccccc1
- UUG fidelity = 22
CCCC(=O)Nc1ccc2c(c1)C(=O)N(C)C[C@@H](OC)[C@H](C)CN(CCc1ccccc1)[C@H](C)CO2
- UUG fidelity = 7

In another format: entries from further up
| UUG fidelity | Compound |
| --- | --- |
| 1 | C[C@H]1CN([C@@H](C)CO)C(=O)c2cc(NC(=O)Nc3ccc(C(F)(F)F)cc3)ccc2O[C@@H]1CN(C)CC1CCCCC1 |
| -2 | CO[C@H]1CN(C)C(=O)c2ccc(NC(C)=O)cc2OC[C@H](C)N(Cc2ccncc2)C[C@H]1C |

Remaining list, next part:
CO[C@@H]1CN(C)C(=O)c2cc(NC(=O)C3CC3)ccc2OC[C@@H](C)N(CC2CCOCC2)C[C@@H]1C
- UUG fidelity = -7
C[C@@H]1CN([C@@H](C)CO)C(=O)c2cccc(NC(=O)Nc3ccccc3)c2O[C@@H]1CN(C)Cc1ccc(C(=O)O)cc1
- UUG fidelity = 5
O=C(Nc1ccc(F)cc1)N1CCCCN2[C@@H](CO)[C@@H](c3ccc(-c4cccc(F)c4)cc3)[C@@H]2C1
- UUG fidelity = 19
COc1ccc(S(=O)(=O)N(C)C[C@@H]2Oc3c(NC(=O)C4CCOCC4)cccc3C(=O)N([C@H](C)CO)C[C@@H]2C)cc1
- UUG fidelity = 20
CCCC(=O)Nc1ccc2c(c1)C(=O)N(C)[C@H]1CC[C@H](CC(=O)N3CCCCC3)O[C@H]1CO2
- UUG fidelity = 12
COCCN(C[C@@H]1[C@@H](c2ccccc2)[C@H](CO)N1C(=O)C1CCC1)C(C)=O
- UUG fidelity = -7
O=C(Nc1cccc(F)c1)N1CCCCN2[C@H](CO)[C@H](c3ccc(C#CC4CC4)cc3)[C@H]2C1
- UUG fidelity = 13
COc1ccc(NC(=O)N(C)C[C@H]2OCc3cnnn3CCCC(=O)N([C@@H](C)CO)C[C@@H]2C)cc1
- UUG fidelity = 17
Cn1cnc(S(=O)(=O)N2CCCCN3[C@H](C2)[C@@H](c2ccc(C#CC4CCCC4)cc2)[C@@H]3CO)c1
- UUG fidelity = 37
O=C(C[C@@H]1CC[C@@H]2[C@H](COC[C@@H](O)CN2Cc2ccccc2)O1)N[C@@H]1CCN(Cc2ccccc2)C1
- UUG fidelity = -2
O=C(C1CC1)N1C[C@H]2[C@@H](c3ccccc31)[C@H](CO)N2S(=O)(=O)c1ccccc1
- UUG fidelity = -11
Cc1noc(C)c1S(=O)(=O)Nc1ccc2c(c1)C(=O)N([C@@H](C)CO)C[C@H](C)[C@@H](CN(C)C(=O)Nc1ccc3c(c1)OCO3)O2
- UUG fidelity = -2
CO[C@H]1CN(C)C(=O)c2ccc(NS(=O)(=O)c3ccc(-c4ccccc4)cc3)cc2OC[C@H](C)NC[C@H]1C
- UUG fidelity = 5
COCC(=O)Nc1ccc2c(c1)C(=O)N(C)C[C@@H](OC)[C@@H](C)CN(C(=O)c1ccncc1)[C@@H](C)CO2
- UUG fidelity = -9
CCCNC(=O)C[C@@H]1C[C@H]2c3cc(NC(=O)C4CCC4)ccc3O[C@H]2[C@@H](CO)O1
- UUG fidelity = -10
CN1C[C@@H]2[C@H](c3ccccc31)[C@H](CO)N2S(=O)(=O)c1ccccc1
- UUG fidelity = 10
COc1ccc(NC(=O)N2CCCCN3[C@H](CO)[C@H](c4ccc(C5=CCCCC5)cc4)[C@@H]3C2)cc1
- UUG fidelity = 8
Cc1cccc(S(=O)(=O)N2CCCCN3[C@@H](CO)[C@H](c4ccc(-c5ccccc5)cc4)[C@@H]3C2)c1
- UUG fidelity = -10
O=C(C[C@@H]1CC[C@H]2[C@@H](COC[C@H](O)CN2C(=O)Nc2ccc(Cl)c(Cl)c2)O1)NCc1ccccc1
- UUG fidelity = 0
C[C@H]1CN([C@@H](C)CO)C(=O)c2cc(NC(=O)CCCN(C)C)ccc2O[C@H]1CN(C)S(=O)(=O)c1cccs1
- UUG fidelity = -2
COc1ccc(NC(=O)N2CCCCN3[C@H](C2)[C@@H](c2ccc(C#Cc4ccccc4)cc2)[C@@H]3CO)cc1
- UUG fidelity = 28
Cc1ccc(S(=O)(=O)N(C)C[C@H]2Oc3c(NC(=O)c4nc5ccccc5s4)cccc3C(=O)N([C@H](C)CO)C[C@H]2C)cc1
- UUG fidelity = -13
C[C@H](CO)N1C[C@H](C)[C@H](CN(C)Cc2ccncc2)Oc2ccc(NS(=O)(=O)c3ccccc3)cc2C1=O
- UUG fidelity = -6
C[C@H]1CN([C@@H](C)CO)C(=O)c2c(c3ccccc3n2C)-c2ccccc2CO[C@@H]1CN(C)S(=O)(=O)c1ccccc1
- UUG fidelity = -1
Cc1ccc(S(=O)(=O)N(C)C[C@H]2Oc3ccc(N(C)C)cc3C(=O)N([C@H](C)CO)C[C@@H]2C)cc1
- UUG fidelity = 9

COCC(=O)N1CCCCN2[C@H](CO)[C@H](c3ccc(-c4ccc(C)cc4)cc3)[C@@H]2C1
- UUG fidelity = 8
O=C(Nc1cccc(Cl)c1)N1C[C@H]2[C@@H](c3ccccc31)[C@@H](CO)N2C(=O)c1cccnc1
- UUG fidelity = -14
C[C@H](CO)N1C[C@H](C)[C@H](CN(C)C)Oc2c(NS(=O)(=O)c3cccs3)cccc2C1=O
- UUG fidelity = 9
O=C(C[C@H]1CC[C@@H]2[C@H](COC[C@@H](O)CN2Cc2ccc3c(c2)OCO3)O1)N1CCOCC1
- UUG fidelity = -4
CNC[C@@H]1Oc2c(NC(=O)Nc3ccccc3)cccc2C(=O)N([C@H](C)CO)C[C@@H]1C
- UUG fidelity = 2
COc1ccc(S(=O)(=O)N(C)C[C@H]2Oc3ccc(NC(=O)CCC(F)(F)F)cc3CC(=O)N([C@@H](C)CO)C[C@H]2C)cc1
- UUG fidelity = 4
Cc1ccccc1S(=O)(=O)N1C[C@H]2[C@@H](c3ccccc31)[C@@H](CO)N2C(=O)CC1CC1
- UUG fidelity = 30
CC(=O)N1CC[C@@H]2[C@H](CO)Nc3ccc(C#Cc4cccnc4)cc3[C@@H]21
- UUG fidelity = -5
C[C@@H]1CN([C@@H](C)CO)C(=O)Cc2cc(NC(=O)Nc3ccc(F)cc3)ccc2O[C@@H]1CN(C)C
- UUG fidelity = -2
COc1ccccc1-c1ccc2c(c1)[C@@H]1[C@@H](CCN1S(=O)(=O)c1cccc(F)c1)[C@H](CO)N2
- UUG fidelity = -7
C[C@@H]1CN([C@H](C)CO)C(=O)c2cccc(NS(=O)(=O)c3cn(C)cn3)c2O[C@H]1CN(C)C(=O)NC1CCCCC1
- UUG fidelity = 1
CC(C)NC(=O)N(C)C[C@H]1Oc2ccc(NS(=O)(=O)c3ccc(F)cc3)cc2C(=O)N([C@@H](C)CO)C[C@H]1C
- UUG fidelity = 1
CN1C(=O)c2cc(NC(=O)Nc3ccc(F)cc3)ccc2OC[C@H]2O[C@@H](CC(=O)NC3CCC3)CC[C@H]21
- UUG fidelity = 20
COc1ccc(CN(C)C[C@H]2Oc3c(NC(=O)Nc4c(C)noc4C)cccc3C(=O)N([C@@H](C)CO)C[C@@H]2C)cc1
- UUG fidelity = -10
CCCC#Cc1ccc([C@@H]2[C@@H](CO)N3CCCCN(CCC)C[C@@H]23)cc1
- UUG fidelity = 14
O=C(Nc1ccccc1F)N1C[C@H]2[C@@H](c3ccccc31)[C@@H](CO)N2C(=O)c1ccccc1F
- UUG fidelity = 8

Structures shown so far with fluorine, in the order listed:
C[C@H]1CN([C@@H](C)CO)C(=O)c2cc(NC(=O)Nc3ccc(C(F)(F)F)cc3)ccc2O[C@@H]1CN(C)CC1CCCCC1
- UUG fidelity = 1
CCC(=O)N1[C@H](CO)[C@H](c2ccccc2)[C@H]1CN(CC)C(=O)c1cccc(F)c1
- UUG fidelity = 13
CN1c2ccc(-c3cccc(C#N)c3)cc2[C@@H]2[C@@H](CCN2C(=O)c2ccc(F)cc2)[C@@H]1CO
- UUG fidelity = -14
CN(C)C(=O)c1cccc(-c2ccc3c(c2)[C@@H]2[C@@H](CCN2C(=O)c2ccccc2F)[C@@H](CO)N3)c1
- UUG fidelity = -7
CN1C(=O)c2cc(NC(=O)Nc3ccc(F)cc3)ccc2OC[C@@H]2O[C@@H](CC(=O)NC3CCC3)CC[C@@H]21
- UUG fidelity = 24
O=C(Nc1ccc(F)cc1)N1CCCCN2[C@@H](CO)[C@@H](c3ccc(-c4cccc(F)c4)cc3)[C@@H]2C1
- UUG fidelity = 19
O=C(Nc1cccc(F)c1)N1CCCCN2[C@H](CO)[C@H](c3ccc(C#CC4CC4)cc3)[C@H]2C1
- UUG fidelity = 13
COc1ccc(S(=O)(=O)N(C)C[C@H]2Oc3ccc(NC(=O)CCC(F)(F)F)cc3CC(=O)N([C@@H](C)CO)C[C@H]2C)cc1
- UUG fidelity = 4
C[C@@H]1CN([C@@H](C)CO)C(=O)Cc2cc(NC(=O)Nc3ccc(F)cc3)ccc2O[C@@H]1CN(C)C
- UUG fidelity = -2
COc1ccccc1-c1ccc2c(c1)[C@@H]1[C@@H](CCN1S(=O)(=O)c1cccc(F)c1)[C@H](CO)N2
- UUG fidelity = -7
CC(C)NC(=O)N(C)C[C@H]1Oc2ccc(NS(=O)(=O)c3ccc(F)cc3)cc2C(=O)N([C@@H](C)CO)C[C@H]1C
- UUG fidelity = 1
CN1C(=O)c2cc(NC(=O)Nc3ccc(F)cc3)ccc2OC[C@H]2O[C@@H](CC(=O)NC3CCC3)CC[C@H]21
- UUG fidelity = 20
O=C(Nc1ccccc1F)N1C[C@H]2[C@@H](c3ccccc31)[C@@H](CO)N2C(=O)c1ccccc1F
- UUG fidelity = 8
